A1 inh: caspase 3/7 activation in MEF A1-2A-BIM cells, primary screen, A1 inhibitor project, cell-based, luminescence, HTS; Caspase-Glo 3/7 luminescence, 3 h; percent of clofoctol response, vehicle zero; caspase activation, % (concentration not given with the values); actives 0.066% (n = 330,000); AID 2462, 2010;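 active means over half of replicate activation scores above 10%, or exactly half above 10 with the replicate mean above 10; inconclusive means replicate mean below 10 yet half the replicates above 10; inactive means over half of replicates below 10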;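 further: wells of about 30 µL received 50 nL stock; many hits fall short of the cut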
LANA-H2A inh: blockers of LANA interaction with H2A/H2B – biochemical, FP readout, HTS, primary screen; Protein LANA1 (Human herpesvirus 8 type P (isolate GK18)), Q9QR71; cell-free LANA-H2A/H2B peptide, fluorescence polarization; inhibition, % (no concentration beside the values); actives 0.6% (n = 320,000); AID 2629, 2010; in the data active means inhibition mostly above about 10%, no sharp cut-off; inactive means mostly below about 6.7%;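 further: stock transfer was 7.5 nL into about 10 µL; 0% = median of vehicle wells and 100% = median of positive control wells; one replicate is shown; the record names a cut of 25% in any replicate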
UCH37 DUB inh: inhibitors of human UCH37 deubiquitinase, primary screen, biochemical, Ub-AMC cleavage, fluorescence. purified proteasome/UCH37. inhibition, % (concentration not given with the values). actives 0.33% (n = 330,000). AID 588478, 2011;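 active means mean of two replicates above 20%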;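 further: 0% = compound-free wells with enzyme and 100% = wells lacking proteasome; stock transfer was 100 nL into about 20 µL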
Target sequence (Q9Y5K5 whole entry, looked up): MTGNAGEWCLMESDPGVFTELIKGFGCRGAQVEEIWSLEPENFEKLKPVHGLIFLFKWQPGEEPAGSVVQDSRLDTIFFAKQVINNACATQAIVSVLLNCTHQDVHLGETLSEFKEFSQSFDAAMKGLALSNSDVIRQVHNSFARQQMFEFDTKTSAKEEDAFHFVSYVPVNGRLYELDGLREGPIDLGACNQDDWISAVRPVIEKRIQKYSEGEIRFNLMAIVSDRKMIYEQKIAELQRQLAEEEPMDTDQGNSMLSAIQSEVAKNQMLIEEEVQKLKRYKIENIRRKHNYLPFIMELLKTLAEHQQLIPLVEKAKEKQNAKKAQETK
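Test system – human UCH37 enzyme supplied as purified proteasome complex · Incubation – 30 min preincubation with enzyme, 25 min cleavage at room temperature · Detection – AMC fluorescence from Ub-AMC cleavage, excitation 355 nm, emission 460 nm · Benchmarks – no-proteasome wells (full inhibition) and compound-free wells (no inhibition)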
Beta2AR agonist: beta2AR agonists driving receptor internalization, primary screen, cell-based, FAP fluorogen, flow cytometry; response, % (concentration not given with the values); Beta-2 adrenergic receptor (Homo sapiens), P07550; actives 0.43% (n = 340,000); Am2.2-beta2AR cells; reference of the scale not given here;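 active means response above a set limit, near 3 SD of response in nonfluorescent compounds, cut at about 42% in these data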;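 further: stock transfer was 100 nL into about 11 µL; a reference agonist was the positive control; negative values mostly stem from fluorescent compounds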
Target sequence (P07550 whole entry, looked up): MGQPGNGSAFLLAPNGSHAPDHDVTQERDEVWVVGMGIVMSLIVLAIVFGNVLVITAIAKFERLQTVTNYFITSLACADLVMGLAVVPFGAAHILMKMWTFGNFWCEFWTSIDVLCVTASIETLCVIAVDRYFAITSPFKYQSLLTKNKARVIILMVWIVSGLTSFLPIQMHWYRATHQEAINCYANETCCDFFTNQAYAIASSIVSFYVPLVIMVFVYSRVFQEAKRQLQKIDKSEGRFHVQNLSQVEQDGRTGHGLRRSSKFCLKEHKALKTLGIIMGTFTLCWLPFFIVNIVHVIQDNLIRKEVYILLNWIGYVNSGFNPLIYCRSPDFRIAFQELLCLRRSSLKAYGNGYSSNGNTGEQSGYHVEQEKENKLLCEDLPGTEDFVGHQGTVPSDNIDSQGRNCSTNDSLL
Vif TR-FRET: inhibitors of Vif binding to APOBEC3G peptide, primary screen, biochemical, TR-FRET, GST-Vif 1-94, biotin-A3G peptide, dose response retest (AID 1117319); one-dose inhibition, %; IC50 in µM for titrated hits; TR-FRET GST-Vif / biotin-A3G peptide binding; higher % means a stronger effect; test concentration not given here; strong numbers were not always called active; Virion infectivity factor (Human immunodeficiency virus type 1 group M subtype B (isolate …; actives 0.57% (n = 260,000);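 active means above the screen mean plus three standard deviations and confirmed in dose response; inconclusive means results disagree or hit not tested in dose response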;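 further: Vif residues 1-94 fused to GST binding biotinylated APOBEC3G peptide 110-148; 0% = full assay without inhibitor and 100% = GST in place of GST-Vif; retest series ran down from 100 µM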
E coli growth: E. coli growth inhibition, primary screen, OD600; AID 1053175, 2014; Escherichia coli growth, 23 h; stronger effect = lower value; actives 0.21% (n = 330,000); OD600 absorbance (concentration not given with the values);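 active means OD600 absorbance below the run mean of sample wells minus 3.6 SD, in any replicate, cut at about 0.56 in these data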;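 further: stock transfer was 300 nL into about 60 µL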
HNF4A DNA FP: change in binding of human HNF4A to DNA, primary screen, biochemical, fluorescence polarization, FITC-DNA. Hepatocyte nuclear factor 4-alpha (Homo sapiens), P41235. activity change, % at 10 µM. actives 0.3% (n = 360,000). AID 1224865, 2016. 1 h; in the data active means activity change above about 30%, passing the limit was not always enough;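 further: controls were the assay level and a saturating level of protein; the project sought stronger binding though the title names inhibitors; some compounds called inactive have numbers as strong as hits; positive values seem to mean higher polarization but the record does not say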
Active calls of the source: *; i = inactive; u = inconclusive; x = no result given.

SMILES | A1 inh | LANA-H2A inh | UCH37 DUB inh | Beta2AR agonist | Vif TR-FRET | E coli growth | HNF4A DNA FP
CCCCCCn1nc(C(=O)Nc2nc3c(s2)CCCC3)c2ccccc2c1=O | 0.9 | 0.0 | 5.6 | 5 | x | 0.69 | 0.6
C[C@H](CO)N1C[C@H](C)[C@@H](CN(C)S(=O)(=O)c2ccccc2)Oc2c(NC(=O)Nc3ccc4c(c3)OCO4)cccc2C1=O | -1.4 | 3.3 | 14 | -1 | -6% | 0.74 | 4.2
CC1CCCCN1C(=S)NCc1ccccc1 (stereo unspecified) | -0.7 | 4.9 | -1.5 | 1 | 25% | 0.7 | 0.6
CC(C)(C)C(=O)Nc1cccc(-c2nnc(-c3cccc(NC(=O)C(C)(C)C)c3)o2)c1 | 0.1 | 0.9 | -0.1 | -2 | -3% | 0.72 | 1.5
CC(C)(C)OC(=O)N1CC=C2C(C#N)=C(N)C(C#N)(C#N)C(c3cccs3)C2C1 (stereo unspecified) | 1.2 | 5.0 | -1.9 | 3 | 5% | 0.69 | 9.9
CC1(C)OC2OC(C(=O)N/N=C/c3cc(Br)ccc3O)C3OC(C)(C)OC3C2O1 (stereo unspecified) | 0.3 | -2.8 | x | 2 | -10% | x | 3.1
COc1ccc(C2CC(c3ccccc3)Nc3nc(NC(=O)c4ccco4)nn32)cc1 (stereo unspecified) | -0.1 | -2.0 | -2.8 | -14 | 6% | 0.74 | -1.1
COc1ccccc1CN(Cc1nc2ccccc2c(=O)[nH]1)C(=O)Nc1ccc(C)cc1 | 0.0 | 5.0 | -0.7 | -1 | -5% | 0.66 | -3.2
COC(=O)c1ccc(Cn2cnc3c(sc4nc(N5CCOCC5)c5c(c43)CCCC5)c2=O)o1 | 0.0 | 0.1 | -26 | 6 | -18% | 0.74 | 1.1
CC1CN(C(=O)CCC(=O)NCCCN2CCN(Cc3ccccc3)CC2)c2cc(Cl)ccc2O1 (stereo unspecified) | -0.2 | -0.3 | 3.3 | 4 | -5% | 0.71 | 3.8
O=C(c1ccccc1Cl)N1CCc2ccccc2C1 | 0.4 | 2.2 | 3.3 | -5 | 9% | 0.72 | 1.6
NNC(=O)COc1ccccc1[N+](=O)[O-] | 1.4 | -2.5 | 4.6 | 3 | 2% | 0.67 | -2.2
Cc1nc2ccccc2c(=O)n1CCN1CCOCC1 | -1.3 | -2.7 | 0.3 | 1 | 1% | 0.68 | -0.5
Cc1ccc(-c2cc(C(=O)NCC(c3ccccc3)N(C)C)c3ccccc3n2)o1 (stereo unspecified) | 0.2 | 1.0 | i | 5 | -5% | 0.63 | 0.4
COc1ccccc1C1=NC(c2ccccc2)CN1c1ccccc1 (stereo unspecified) | 0.2 | -3.9 | i | 3 | 1% | 0.67 | -3.7
COc1cccc2c(=O)n(CC(=O)N3CCCCC3)ccc12 | 0.2 | -3.2 | 0.0 | 16 | u | 0.7 | 1.0
COc1ccc(CN(C(=O)COc2ccc(C)c(C)c2)C2CCS(=O)(=O)C2)cc1OC (stereo unspecified) | x | 3.5 | 4.4 | -1 | x | 0.66 | -4.0
CC(C)CCC(C)N=Cc1c(O)n(Cc2ccccc2)c(=O)c2ccccc12 (stereo unspecified) | 1.3 | 5.6 | 2.8 | 1 | 1% | 0.75 | 0.1
CCCCNC(=S)N1CCN(c2nc3ccccc3s2)CC1 | 0.6 | 1.5 | 1.6 | -3 | 4% | 0.66 | 1.7
CCOC(=O)c1c(/N=C/c2cccc([N+](=O)[O-])c2O)sc2c1CCC2 | 1.1 | 0.1 | x | -1 | 27% | x | -7.9
Cc1cc(-c2cc(C)c(N)cc2C)c(C)cc1N | x | x | 1.4 | -8 | -2% | 0.7 | -0.1
COCCNC(=O)C(c1cccnc1)N(Cc1ccc(C)cc1)C(=O)Cn1nnc2ccccc21 (stereo unspecified) | 0.4 | 1.9 | 3.3 | 4 | x | 0.66 | -2.1
O=C(NCCc1ccccc1)c1ccncc1 | x | x | 2.8 | x | -2% | 0.72 | x
O=C(CCNS(=O)(=O)c1ccc2[nH]c(=O)oc2c1)NCc1ccc(F)cc1 | -0.7 | 1.0 | 1.7 | -3 | 2% | 0.68 | 5.1
CS(=O)(=O)c1ccccc1C(=O)Nc1ccc2sccc2c1 | -0.5 | -0.6 | 2.0 | -6 | 2% | 0.72 | -3.7

The final six compounds of the part before come first, to join the parts:
SMILES | A1 inh | LANA-H2A inh | UCH37 DUB inh | Beta2AR agonist | Vif TR-FRET | E coli growth | HNF4A DNA FP
CCOC(=O)c1c(/N=C/c2cccc([N+](=O)[O-])c2O)sc2c1CCC2 | 1.1 | 0.1 | x | -1 | 27% | x | -7.9
Cc1cc(-c2cc(C)c(N)cc2C)c(C)cc1N | x | x | 1.4 | -8 | -2% | 0.7 | -0.1
COCCNC(=O)C(c1cccnc1)N(Cc1ccc(C)cc1)C(=O)Cn1nnc2ccccc21 (stereo unspecified) | 0.4 | 1.9 | 3.3 | 4 | x | 0.66 | -2.1
O=C(NCCc1ccccc1)c1ccncc1 | x | x | 2.8 | x | -2% | 0.72 | x
O=C(CCNS(=O)(=O)c1ccc2[nH]c(=O)oc2c1)NCc1ccc(F)cc1 | -0.7 | 1.0 | 1.7 | -3 | 2% | 0.68 | 5.1
CS(=O)(=O)c1ccccc1C(=O)Nc1ccc2sccc2c1 | -0.5 | -0.6 | 2.0 | -6 | 2% | 0.72 | -3.7
COC(=O)C1C(O)=C(C=Nc2ccccc2)C(=O)CC1(C)C (stereo unspecified) | -0.5 | 1.2 | 12 | -14 | 3% | 0.64 | -2.1
O=C(C[C@@H]1C/C=C\C[C@H](NC(=O)OCC2c3ccccc3-c3ccccc32)C(=O)OC[C@@H]2CCCN2C1=O)N[C@H](CO)Cc1ccccc1 | 0.0 | -1.8 | -4.6 | -1 | x | x | -2.6
O=C(O)c1ccc(NC2OC[C@@H](O)[C@H](O)[C@H]2O)cc1 (stereo partly specified) | -0.1 | -4.2 | 6.1 | 3 | x | x | -1.0
Cn1nnnc1SCC(=O)Nc1ccccc1Cc1ccccc1 | -0.4 | 8.0 | 0.1 | 6 | 2% | 0.78 | 0.9
CC(C)Cn1c(N)c(C(=O)CSc2nnc(-c3ccco3)n2C)c(=O)n(C)c1=O | 0.1 | 4.8 | 1.1 | -9 | -1% | 0.71 | 1.8
Cc1cc(OC(C)C)c2c(-c3ccccc3)cc(=O)oc2c1 | -1.0 | -2.0 | -0.4 | -1 | 1% | 0.73 | 1.1
COc1ccc(C(=O)Cc2cc(OC)c(OC)cc2[N+](=O)[O-])cc1 | 0.6 | 1.4 | 6.5 | 2 | 5% | 0.72 | 4.0
O=C(Cc1ccccc1)OCC(=O)c1cccc([N+](=O)[O-])c1 | 1.6 | -1.9 | 1.7 | -11 | x | 0.72 | 2.5
COc1ccc(Cl)cc1NC(=O)CN(C)C(=O)c1cc2ccccc2cc1O | -0.1 | -0.5 | -2.0 | -5 | -7% | 0.7 | 8.6
CCCCNC(=O)CSc1nc2ccccc2c(=O)n1C1CCCC1 | 0.7 | 8.4 | 0.4 | -5 | -8% | 0.65 | 0.9
C=CCOC(=O)COc1ccc2c(C)c(C)c(=O)oc2c1C | 0.3 | 2.5 | -20 | -6 | 29% | 0.71 | 4.2
Cc1c(-c2ccc(F)cc2)nc(N)c(C#N)c1-c1cccs1 | -1.0 | 4.2 | -8.7 | 1 | -14% | 0.7 | 0.3
Cc1cccc(Nc2nccc(N(C)C)c2C#N)c1 | -0.5 | -4.8 | 1.8 | 5 | -3% | 0.67 | 4.0
CC1(C)CC(CC(=O)Nc2nccs2)(c2ccccc2)CCO1 (stereo unspecified) | 0.3 | -4.1 | x | -3 | 19% | x | -1.7
O=C(O)c1ccccc1OC(C(=O)Nc1cc(Cl)cc(Cl)c1)c1ccccc1 (stereo unspecified) | 2.6 | -2.0 | 2.1 | -6 | x | 0.66 | 1.5
Cc1ccc(C(=O)N2CCN(c3ccccc3Cl)CC2)cc1[N+](=O)[O-] | 0.0 | 2.0 | 1.7 | -3 | x | 0.67 | -0.7
CCCCN(CCCNC(=O)C1CCN(S(=O)(=O)N2CCOCC2)CC1)c1ccccc1 | -0.4 | -1.4 | 0.5 | 22 | 16% | 0.7 | -4.6
CCCNC(=O)c1ccc(-c2nc3ccccc3s2)s1 | -6.6 | 2.0 | -44 | 2 | 67% | 0.69 | 3.8
CC(C)C(NC(=O)c1ccccc1Cl)C(=O)OCc1nc2scc(-c3ccccc3Cl)c2c(=O)[nH]1 (stereo unspecified) | -0.5 | -4.6 | -0.6 | 10 | -7% | 0.71 | -0.3
O=C(Cc1ccccc1)NC1(Cc2ccc(O)cc2)CCCCC1 | 0.4 | 3.9 | 1.8 | 57* | -7% | 0.66 | 0.8
CCCn1c(=S)[nH]c2cc(C(=O)NCC3CCCO3)ccc2c1=O (stereo unspecified) | 0.1 | -1.6 | 1.4 | 5 | 20% | 0.71 | -1.5
COC(=O)CNC(=O)C(Cc1c[nH]c2ccccc12)NC(=O)Oc1ccccc1 (stereo unspecified) | 1.2 | 2.9 | 4.1 | 4 | -7% | 0.7 | 2.9
CC(C)[C@H](NC(=O)c1ccccc1F)C(=O)NNC(=O)c1cccs1 | 0.8 | -1.3 | -0.3 | 11 | x | 0.65 | -3.4
COc1ccc(/C=N/Nc2cn[nH]c(=O)c2Cl)cc1 | -6.0 | -8.8 | x | -3 | -3% | x | 2.5
COc1ccc(-c2oc(=O)c3cc(OC)c(OC)cc3c2-c2cc(F)cc(OC)c2)cc1 | -0.7 | -3.4 | -1.9 | 6 | x | 0.74 | 2.1
Later entries
SMILES | A1 inh | LANA-H2A inh | UCH37 DUB inh | Beta2AR agonist | Vif TR-FRET | E coli growth | HNF4A DNA FP
COc1cc2cc(C#N)c(SCC(=O)Nc3cc(C)on3)nc2cc1OC | 0.7 | -0.9 | -22 | -8 | -175% | 0.72 | 2.8
CCN1CCN(CC(=O)c2c[nH]c3ccc(C)cc23)CC1 | 0.1 | 5.5 | 2.0 | 2 | 7% | 0.69 | 3.3
Cc1ccc(NC(=O)CN(C)C(=O)CSc2nnc(C)s2)cc1 | 0.6 | -1.3 | 1.8 | -2 | -1% | 0.72 | -0.4
Cc1ccc(C(=O)OCC(=O)NCc2ccc(F)cc2)o1 | 0.2 | -1.7 | 3.7 | 1 | 8% | 0.7 | -1.7
CCCC(=O)Nc1ccc(C(=O)NN=C(C2CC2)C2CC2)cc1 | 0.7 | 4.3 | 3.1 | 1 | 4% | 0.7 | 4.2
Cc1nc(SC(C)C(=O)NC2CCCCC2C)c2c(C)c(C)sc2n1 (stereo unspecified) | 0.4 | 5.3 | -2.3 | 1 | x | 0.68 | 1.4
CC1SCC(NC(=O)c2ccccc2Cl)CS1 (stereo unspecified) | 0.1 | 5.9 | 2.4 | 3 | -3% | 0.66 | -3.3
Cc1ccc(N2C(=O)N(CC(=O)N3CCCc4ccccc43)C(=O)C2C)cc1 (stereo unspecified) | -0.2 | 5.2 | 1.4 | 0 | -14% | 0.69 | 4.0
Cn1cnnc1-c1cccc(NC(=O)c2cc(F)c(F)cc2Cl)c1 | -0.1 | -2.0 | 2.8 | 0 | -4% | 0.69 | -3.3

Compound activity as filed in PubChem.

Rows are unselected; overall some 2.1% were active at least once.
